High-throughput results: PubChem, ICCB-Longwood Screening Facility, Harvard Medical School
Mtb MbtI inh: blocks the Mycobacterium tuberculosis siderophore enzyme MbtI. AID 493033. purified MbtI enzyme, fluorescence intensity read-out. inhibition, %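 (about 17 µg/mL by stock and volumes)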. hit rate 0.89% among 100,000. P9WFX0;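 active = above 50% in both replicates, above 80% if mildly self-fluorescent; inactive = the rest, strongly fluorescent compounds included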;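 note: 0% = mean of negative and 100% = mean of positive controls; one replicate is shown; some compounds called inactive have numbers as strong as hits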
PV pol inh: poliovirus RNA polymerase inhibition | AID 588519 | hit rate 0.66% among 150,000 | % elongation, % (compound at 16.7 µg/mL) | P03300 | poliovirus polymerase elongation, fluorescence polarization; hits give low values; in the data active = % elongation below about 90%; note: some results filed as inactive read as strong as hits
Target sequence (P03300 1749-2209 limits assumed): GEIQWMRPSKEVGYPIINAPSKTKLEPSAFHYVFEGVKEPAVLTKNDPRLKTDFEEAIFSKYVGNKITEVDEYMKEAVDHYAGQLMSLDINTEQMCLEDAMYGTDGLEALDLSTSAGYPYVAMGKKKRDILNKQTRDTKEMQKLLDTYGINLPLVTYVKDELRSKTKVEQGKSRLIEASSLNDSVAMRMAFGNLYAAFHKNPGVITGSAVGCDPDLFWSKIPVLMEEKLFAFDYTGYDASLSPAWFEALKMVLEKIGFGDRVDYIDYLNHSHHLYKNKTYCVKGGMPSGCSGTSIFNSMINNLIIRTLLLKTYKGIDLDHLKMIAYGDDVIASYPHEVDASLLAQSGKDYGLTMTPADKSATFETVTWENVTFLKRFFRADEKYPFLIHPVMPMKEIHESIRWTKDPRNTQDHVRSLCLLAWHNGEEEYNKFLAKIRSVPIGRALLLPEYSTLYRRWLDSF
Mtb MenB inh: inhibitors of Mycobacterium tuberculosis MenB enzyme; P9WNP5; MenB enzyme assay, absorbance read-out; some hits fall short of the stated cut; inhibition, %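 (about 12 µg/mL by stock and volumes)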; hit rate 0.43% among 100,000; AID 540299;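 active = mean of two replicates above 30%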;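 note: 0% = no compound and 100% = wells with inactive enzyme; the first replicate is given; strong numbers were not always called active; inactives centre near -10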
Target sequence (P9WNP5 whole entry, looked up): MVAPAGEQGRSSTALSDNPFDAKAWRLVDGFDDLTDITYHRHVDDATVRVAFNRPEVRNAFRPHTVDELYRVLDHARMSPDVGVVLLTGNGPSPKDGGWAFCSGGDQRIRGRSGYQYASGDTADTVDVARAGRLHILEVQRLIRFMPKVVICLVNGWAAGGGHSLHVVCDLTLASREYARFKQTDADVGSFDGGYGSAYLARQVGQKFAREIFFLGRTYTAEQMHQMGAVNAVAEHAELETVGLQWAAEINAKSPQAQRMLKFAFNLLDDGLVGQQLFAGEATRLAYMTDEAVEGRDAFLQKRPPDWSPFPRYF
PV pol inh intensity: also measured in PV pol inh; calls as there; % elongation; measured here: total intensity read-out; formula for this scale not given here;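 total fluorescence in place of polarization; lower means less elongation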
* marks the source's active call; other numbers are inactive results; / = not tested or not shown; & = joins results of further samples.

SMILES	Mtb MbtI inh	PV pol inh	PV pol inh intensity	Mtb MenB inh
NC(=O)C1CCN(C(=O)C2CCN(S(=O)(=O)c3ccc(-n4cnnn4)cc3)CC2)CC1	-6	104	98	-55
CC(C)CCn1c(=O)c2[nH]c(=S)[nH]c2n(CC(C)C)c1=O	40&88	106&99	106&100	-35&32
Cn1nc(-c2ccccn2)sc1=S	1	100	92	-28
NCC1CCN(Cc2ccccc2Cl)CC1	1	103	100	4
CN(C)S(=O)(=O)c1ccc(NC(=O)CN(C)S(=O)(=O)c2ccc(Cl)cc2)cc1	-1	109	109	-29
N#CC1=C(N)Oc2c(sc3ccccc23)C1c1ccco1 (configuration not stated)	49	89	189	-114
O=C(CCCSc1nc(-c2ccco2)cc(C(F)(F)F)n1)NC1CCCC1	16	106	103	4
O=C1c2ccccc2C2N1CCCN2S(=O)(=O)c1cccc(C(F)(F)F)c1 (configuration not stated)	-5	106	109	-4
CC1(C)CC(=O)C2=C(C1)N1C(=C(C#N)C2c2ccccc2F)N=C(N)c2ccccc21 (configuration not stated)	6	100	102	16
O=c1ccc2cc(S(=O)(=O)Nc3ccc(F)cc3)ccc2o1	-6	104	102	-26
CCCCC1(CN2CCN(Cc3ccccc3)CC2)C(=O)N(c2ccccc2)N(c2ccccc2)C1=O	4	101	92	-5
CC(C)CCn1c(C(C)O)nc2ccccc21 (configuration not stated)	/	110	113	-19
COC(=O)c1cnc(N2CCOCC2)nc1C(F)(F)F	-9	105	110	-11
CC1CC(C)CN(CCCNC(=O)CCn2cnc3onc(-c4ccc(F)cc4)c3c2=O)C1 (configuration not stated)	1	102	97	-39
Cc1cc(C)n(NC(=S)NC2CC3C=CC2C3)c(=O)c1C#N (configuration not stated)	3	102	95	6
Cc1cccc(-n2ncc3c(N4CCc5ccccc54)ncnc32)c1	69	103	103	-5
Cc1ccc(NC(=S)/N=C(\N)C(C)C)cc1	-2	101	104	-14
C#CCn1c(C2CCCCC2)nc2ccccc21	-4	104	101	-54
CC(C)(C)SCC(O)Cn1c2ccc(Cl)cc2c2cc(Cl)ccc21 (configuration not stated)	15	102	106	-26
CCC(C)c1cc(N)nc2nc3ccccc3n12 (configuration not stated)	-143	105	97	-8
COc1cccc(CN(Cc2ccc3c(c2)OCO3)S(=O)(=O)c2ccc(-n3cnnn3)cc2)c1	-2	104	102	-32
CSc1ccc(/C=C2\SC(=O)N(C)C2=O)cc1	-12	102	102	-19
Cc1nc(C)c(-c2n[nH]c(=S)n2-c2ccccc2C(F)(F)F)s1	11	104	96	4
CCC(=O)NC(=S)Nc1cc(-c2nc3ncccc3o2)ccc1C	5	99	101	-16
COCCn1c(Cc2ccccc2)nnc1SCC(=O)N(C)C	-4	105	102	-40
Cc1cc2ncc(C(=O)Nc3ccccc3)c(C)n2n1	/	101	107	-17
S=c1nc2[nH]c3ccccc3c2n[nH]1	19	101	98	-8
O=C(NC(Cc1ccccc1)C(=O)Nc1nc(-c2ccccc2)cs1)Oc1ccccc1 (configuration not stated)	/	107	102	-18
Nc1nc(-c2ccccc2)nn1C(=O)c1cccs1	13	100	103	10
CC(C)OC(=O)c1cccc(-c2nn[nH]n2)c1	-8	99	105	3
Cc1oc2ncnc(N3CCCCC3)c2c1C(=O)N1CCOCC1	-11	106	102	-11
O=C(CSc1ncc(C(F)(F)F)cc1Cl)N(c1ccccc1)C1CCS(=O)(=O)C1 (configuration not stated)	-1	110	106	0
CCc1ccc2[nH]c3nc(=S)[nH]nc3c2c1	3	102	107	-58
Cc1nnc(N/N=C/c2c(O)n(-c3cccc(C(F)(F)F)c3)c(=O)c3ccccc23)[nH]c1=O	8	115	121	-48
CCCC(=O)N1CCCC(c2nc(-c3cccs3)no2)C1 (configuration not stated)	6	100	103	-55
Cc1cccc(N(Cc2cc(=O)n3ccccc3n2)C2=NC3CS(=O)(=O)CC3S2)c1 (configuration not stated)	47	106	111	8
Cc1cccc(N2CCN(CCNC(=O)CCn3c(=O)c4cccn4c4cccnc43)CC2)c1C	4	105	104	-7
Cc1c(Nc2cc(=O)oc3ccccc23)c(=O)n(-c2ccccc2)n1C	12	102	104	20
CC(C)(C)c1ccc(OCC(=O)Nc2ccc3c(c2)oc2ccccc23)cc1	-3	100	103	-1
CC1CCCCN1C(=O)COC(=O)c1ccc2[nH]c3c(c2c1)CCCC3 (configuration not stated)	-194	106	110	-1

Part of the list above in order of SMILES length, smallest number first:
SMILES	Mtb MbtI inh	PV pol inh	PV pol inh intensity	Mtb MenB inh
CCc1ccc2[nH]c3nc(=S)[nH]nc3c2c1	3	102	107	-58
CSc1ccc(/C=C2\SC(=O)N(C)C2=O)cc1	-12	102	102	-19
CCCC(=O)N1CCCC(c2nc(-c3cccs3)no2)C1 (configuration not stated)	6	100	103	-55
CC(C)(C)c1ccc(OCC(=O)Nc2ccc3c(c2)oc2ccccc23)cc1	-3	100	103	-1

Next structures follow:
SMILES	Mtb MbtI inh	PV pol inh	PV pol inh intensity	Mtb MenB inh
CC1(C(=O)N2CCOCC2)CCC(C(=O)N2CCOCC2)C1(C)C (configuration not stated)	-6	102	103	-5
O=C(O)CCCn1c(=S)[nH]c2cc3c(cc2c1=O)OCO3	-4	103	105	-6
Cc1cc(NCCO)cc(=O)n1Cc1ccco1	-3	106	100	-22
O=c1c2[nH]c3ccccc3c2nc(SCCC2OCCO2)n1-c1ccccc1F	14	99	105	-6
CCOC1(OCC)N=C(N)c2ccccc21	-1	102	102	-17
CC(=O)N(CN1C(=O)C2CC=CCC2C1=O)c1cccc(Cl)c1 (configuration not stated)	-1	103	102	7
CCOC(=O)c1cc(-c2ccccn2)nc2c1c(=O)n(CC(=O)OC)c(=O)n2Cc1ccccc1	10	81*	77*	-15
CC1CCN(Cc2ccc(NC(=O)COCc3cc(-c4ccco4)on3)cc2)CC1	-8	103	103	-10
NC(N)=NS(=O)(=O)c1ccc(NC(=O)OC2CCCC2)cc1	-5	109	122	-26
CS(=O)(=O)Nc1nc2n(n1)C(c1ccccc1)C=C(c1ccccc1)N2 (configuration not stated)	101	93	116	1
COc1cc(OC)c(NC(=O)C2CCCN(c3ncnc4onc(C)c34)C2)cc1Cl (configuration not stated)	-8	102	104	2
Cc1ccc2c(c1)cc(CN(Cc1ccco1)S(=O)(=O)c1ccccc1)c1nnnn12	-11	102	103	-28
CC1(C)Cc2nc3sc4c(NN)ncnc4c3cc2CO1	1	102	93	-25
OCC[n+]1c(-c2ccccc2)csc1Nc1ccccc1	-9	104	107	/
COc1cccc(CN(C)C(=O)c2cccnc2SC)c1	-6	99	90	-14
O=C(c1cc(-c2ccc(Br)cc2)nc2ccccc12)N1CCCC1	-4	101	106	/
CCOC(=O)C1=C(CN(C)Cc2ccccc2)NC(=O)NC1c1ccccc1 (configuration not stated)	2	98	104	-15
COC(=O)C1Cc2ccccc2CN1S(=O)(=O)c1ccc(C)cc1 (configuration not stated)	3	104	100	4
CCc1cnc(/N=C/N(C)C)nc1-c1c(F)cccc1F	91	98	95	6
Cc1cc(C)c(C(=O)Cn2c(=O)oc3ccccc32)c(C)c1	-6	102	105	-30

Full records, quoted from the list. Order of values: Mtb MbtI inh | PV pol inh | PV pol inh intensity | Mtb MenB inh
`CCOC(=O)c1cc(-c2ccccn2)nc2c1c(=O)n(CC(=O)OC)c(=O)n2Cc1ccccc1` as listed: 10 | 81* | 77* | -15
`OCC[n+]1c(-c2ccccc2)csc1Nc1ccccc1` as listed: -9 | 104 | 107 | /
`CC(=O)N(CN1C(=O)C2CC=CCC2C1=O)c1cccc(Cl)c1` (configuration not stated) as listed: -1 | 103 | 102 | 7
`CS(=O)(=O)Nc1nc2n(n1)C(c1ccccc1)C=C(c1ccccc1)N2` (configuration not stated) as listed: 101 | 93 | 116 | 1

Next section
SMILES	Mtb MbtI inh	PV pol inh	PV pol inh intensity	Mtb MenB inh
CCC(C)(C)NC(=O)Cn1c(-c2ccc(C)cc2)noc1=O	-5	105	103	-52
C[C@]12C=CC(=O)C=C1CC[C@@H]1[C@@H]2C(=O)C[C@@]2(C)[C@H]1CC[C@]2(O)C(=O)CO	-10	102	101	-3
C=CCNC(=S)Nc1ccc(C)cc1	-18	103	108	-35
CCCN(CCC)C(=O)COc1cc(=O)n(CC)c2ccccc12	8	99	101	4
COC(=O)c1ccc(C=Nc2ccc(O)c(-c3nc4ccccc4o3)c2)cc1	-10	102	102	-1
O=C(c1cc(-c2ccc(F)cc2)no1)N1CCOCC1	-1	102	105	10
CCCCCCCCCCCCCCCC(=O)N[C@H](CN1CCOCC1)[C@H](O)c1ccccc1	-1	100&100	106&104	-3
COC(=O)C[N+]1(Cc2ccco2)CCCCC1	5	104	102	-35
CCN(CC)C(=O)c1c[nH]c2ccccc2c1=O	/	103	98	4
C=CCn1c2ccccc2c2nnc(SC(CC)C(=O)Nc3nnc(C(F)(F)F)s3)nc21 (configuration not stated)	-1	100	99	11
NC(=O)Cn1nc(C(=O)O)c2ccccc2c1=O	5	106	108	-4
CCc1cc2c(cc3c(=O)n(CCCC(=O)NC4CCCCC4)ncn32)s1	-3	100	102	9
CN(C)C(=O)NC1CC(C)(C)N(O)C(C)(C)C1	/	104	105	-27
COc1ccc(CN2CCSCC2)c(C)c1C	-7	101	101	-38
CC(C)(C)C1CCC(OC(=O)CN2CCCCC2)CC1 (configuration not stated)	-3	101	102	4
Cc1cc(C)cc(Nc2cc(C)nc(-n3nc(C)cc3C)n2)c1	-17	105	99	-72
COc1ccc(OCC(O)Cn2c(=N)n(Cc3ccccc3)c3ccccc32)cc1 (configuration not stated)	-2	103	102	-1
O=C(c1cccc(CN2CCN(c3nc(-c4ccccc4)ns3)CC2)c1)N1CCC(O)CC1	-6	101	105	-12
Cc1ccc(Oc2ccccc2)c(NC(=O)c2ccccc2)c1	2	102	101	-13
COc1ccc(-c2nnc(-c3ccc(S(=O)(=O)c4ccccc4)cc3)o2)cc1OC	/	104	105	-14
CC(N=CC1=C(O)CC(C)(C)CC1=O)c1ccccc1 (configuration not stated)	16	101	105	-12
CC1CCCCN1c1ccc(N)cc1 (configuration not stated)	18	105	103	-69
CC(=O)Nc1ccc(NC(=O)c2ccc(I)cc2)cc1	12	97	101	-73
NC(=O)c1ccccc1NCC(=O)c1ccc(F)cc1	-24	98	101	9
Cc1cc(C(=O)CSc2ncnc3sc4c(c23)CCCC4)c(C)n1Cc1ccco1	0	102	98	-14
O=C(Nc1ccccc1)N1CCN(c2ccc(F)cc2)CC1	-8	113	114	-3
CC1Cc2ccccc2N1C(=O)CC(=O)N1c2ccccc2CC1C (configuration not stated)	-4	104	110	/
COCCCn1c(-c2cc3ccccc3o2)csc1=Nc1ccccc1F	3	107	110	-35
NCC[C@H](O)C(=O)NC1CC(N)C(OC2OC(CN)C(O)C(O)C2O)C(O)C1OC1OC(CO)C(O)C(N)C1O (some centres not stated)	-11	99	97	-1
CCOC(=O)N1CCC(NC(=O)C2CCCCN2S(=O)(=O)c2ccc(F)cc2)CC1 (configuration not stated)	3	102	106	-6
O=C1/C(=N/NC(=O)C2CC2)c2cccc3cccc1c23	-5	106	105	-50
Clc1ccc(OCc2nc(CSc3cccs3)no2)c(Cl)c1	-10	98	109	-1
COC(=O)c1ccccc1N=Nc1c(N)[nH]n(-c2ccccc2)c1=O	1	101	101	-28
COc1ccc(/C=C(\C#N)C(=O)Nc2nc(OC)cc(OC)n2)cc1	33	103	107	-19
COC(=O)c1sccc1NC(=S)N(C)CCC#N	1	100	104	-13
C[C@@]12CCC3[C@@H]4CCC[C@@](C)(C(=O)O)[C@H]4CC[C@]3(C/C1=N/O)C2 (some centres not stated)	-6	98	102	-4
Cc1ccc(S(=O)(=O)N2CCN(C(=O)CSc3nnc(Cc4csc(C)n4)o3)CC2)cc1	19	103	110	4
O=C(CC1Nc2ccccc2NC1=O)Nc1ccccc1NC(=O)CC1Nc2ccccc2NC1=O (configuration not stated)	-1	106	100	-18
Cn1ccnc1C(=O)Oc1ccccc1F	/	108	113	0
O=C(NCCN1CCOCC1)c1ccc2c(c1)OCCO2	-3	99	103	17
CCOc1ccc(C2c3c(oc4ccccc4c3=O)C(=O)N2CCCN2CCOCC2)cc1 (configuration not stated)	15	99	100	6
O=C(COc1ccc2oc(-c3ccco3)cc(=O)c2c1)OC1CCCCC1	-20	103	101	-20
COc1ccc(Cl)cc1S(=O)(=O)N1CCN=C1c1ccccc1	1	101	100	-6
COc1cc2c(cc1OC)-c1nnnn1C(C)(C)C2	2	102	100	12
COc1ccc(CCN2CC(O)=C(c3nc4ccccc4s3)C2=N)cc1OC	/	103	112	-9
COc1ccc(/C=N/NC(=O)c2ccoc2C)cc1CN1CCN(c2ccc(F)cc2)CC1	-16	102	104	-14
Cc1ccc(N2C(=O)CC(=O)NC2=S)cc1	21	104	103	-194
CC(C)(C)C(=O)CSc1nc2ccccc2[nH]1	17	99	100	-13
CS(=O)(=O)N(CC(=O)N1CCCCC1)Cc1ccccc1	-4	101	102	-37
CCOC(=O)COc1nc(C)c(Br)c(OC)n1	-20	100	112	-14
COc1ccc(NC(=O)Nc2ccc(C(=O)N3CCOCC3)cc2)cc1OC	5	102	101	-24
CC(=O)Nc1nc(C2CC2)cc(-c2ccccc2)c1C#N	/	105	105	-4
COc1ccc(O)c(/C=C(\C#N)C(N)=O)c1	-65	104	102	-17
Fc1ccc(C(c2nnc(-c3ccccc3)o2)N2CCN(Cc3ccccc3)CC2)cc1 (configuration not stated)	-5	101	102	-29
